AF4-AF9 inh = MLL-AF4/AF9 protein interaction inhibition. P42568. AlphaScreen, biotin-AF4 peptide binding to FLAG-AF9. inhibition, % at 10 µM. 350,000 tested, 0.47% active. AID 651704;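 active = every replicate reaching a set inhibition limit, whatever the replicate mean, cut at about 25% in these data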;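 note: 0% = plate neutral control median and 100% = total signal loss; the record names both 10 and 1 µM as test concentration; the first replicate is given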
Target sequence (P42568 whole entry, looked up): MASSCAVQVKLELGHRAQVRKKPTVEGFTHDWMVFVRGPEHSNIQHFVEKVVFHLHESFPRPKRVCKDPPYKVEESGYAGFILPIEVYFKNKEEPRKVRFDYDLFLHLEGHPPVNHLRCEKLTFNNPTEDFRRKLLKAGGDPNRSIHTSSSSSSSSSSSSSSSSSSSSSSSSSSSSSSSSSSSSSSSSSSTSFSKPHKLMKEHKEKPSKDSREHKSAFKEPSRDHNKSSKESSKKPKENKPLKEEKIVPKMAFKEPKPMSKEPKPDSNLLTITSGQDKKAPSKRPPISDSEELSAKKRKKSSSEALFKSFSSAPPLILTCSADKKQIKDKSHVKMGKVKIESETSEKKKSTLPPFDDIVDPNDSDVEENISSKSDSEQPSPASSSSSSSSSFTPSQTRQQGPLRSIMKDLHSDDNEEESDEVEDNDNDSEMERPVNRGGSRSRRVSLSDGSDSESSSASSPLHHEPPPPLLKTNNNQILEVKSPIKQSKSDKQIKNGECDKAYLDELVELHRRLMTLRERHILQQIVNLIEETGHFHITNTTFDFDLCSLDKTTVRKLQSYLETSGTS
rRNA inh HTS = inhibits bacterial ribosomal RNA function over humanized ribosomes; E. coli WT GFP vs humanized-ribosome RFP mutants, fluorescence, 24 h; active compounds read low; DMSO median 0, no signal -100; GFP signal change (wild-type ribosome), % (no concentration beside the values); 350,000 tested, 1.6% active;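 active = significant combined selectivity score with lowered wild-type GFP, culture density cut under 30%, mutant RFP and density less affected; inactive = any of these conditions unmet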; note: one replicate is shown; some compounds called inactive have numbers as strong as hits
FGF22 binding = FGF22 (human) thermal shift binding; 340,000 tested, 1.5% active; recombinant FGF22 thermal shift, SYPRO orange fluorescence; percent of sucrose octasulfate shift, DMSO zero; calls only at 9.99 µM; Q9HCT0;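 active = melting point raised past a set limit in the mean and every replicate; three in four hits are not shown here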
Target sequence (Q9HCT0 whole entry, looked up): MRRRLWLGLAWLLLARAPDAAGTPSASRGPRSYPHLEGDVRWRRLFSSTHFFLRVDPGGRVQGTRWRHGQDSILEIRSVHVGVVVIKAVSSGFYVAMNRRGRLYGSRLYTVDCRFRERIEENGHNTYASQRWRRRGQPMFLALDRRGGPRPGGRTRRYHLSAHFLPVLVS
rRNA inh HTS OD600 = also measured in rRNA inh HTS; calls as there; OD600 change, %; measured here: OD600 growth;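 optical density of the mix in the first replicate; 0 = DMSO median and -100 = no signal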
rRNA inh HTS RFP = second read-out of rRNA inh HTS, no call of its own (marks repeat the call); RFP signal change, %; measured here: RFP humanized mutant strains;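 first replicate; 0 = DMSO median and -100 = no signal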
The depositor's hits bear a star; i = inactive; x = not tested or not shown; & = joins results of further samples. Not all compounds are listed; rates above refer to the full screens.

rRNA inh HTS	AF4-AF9 inh	FGF22 binding	rRNA inh HTS RFP	rRNA inh HTS OD600	SMILES
2	-1.9	i	-2.5	4	CC(C)NC(=O)N[C@@H]1CC[C@@H](CCNC(=O)C2CC2)O[C@@H]1CO
8	-0.2	i	1.8	18	COC(=O)C1C=CC(OC2OC(COC(C)=O)C(OC(C)=O)C(OC(C)=O)C2OC(C)=O)n2c(=O)n(-c3ccccc3)c(=O)n21 (stereo not given)
1	-4.4	i	-0.9	3	Cc1noc(C)c1S(=O)(=O)N(C)C[C@@H]1Oc2ccc(NC(=O)Cn3cnnn3)cc2C(=O)N([C@@H](C)CO)C[C@@H]1C
0	0.0	i	-4.5	1	CO[C@H]1CC[C@H]2CCN(C)C(=O)C[C@@H](c3ccccc3)CN(C)C(=O)c3cccc(C#N)c3OC[C@H]1O2
1	-1.7	i	0.7	1	COc1ccc(NC(=O)N(C)C[C@H]2Oc3c(NC(=O)C4CCCCC4)cccc3C(=O)N([C@@H](C)CO)C[C@@H]2C)cc1
1	-4.2	i	-1.1	-3	CNC[C@H]1Oc2ccc(NS(=O)(=O)c3cccs3)cc2C(=O)N([C@@H](C)CO)C[C@H]1C
0	-0.8	i	1.4	5	COCC(=O)N(C)C[C@@H]1Oc2ncc(C#C[C@H](C)O)cc2C(=O)N([C@H](C)CO)C[C@@H]1C
8	0.1	i	0.1	1	CN(C)CCCNC(=O)C[C@@H]1C=C[C@@H](NC(=O)Cc2cccnc2)[C@H](CO)O1
1	-6.6	i	-4.5	7	O=C(C[C@H]1C=C[C@H](NS(=O)(=O)c2ccccc2)[C@@H](CO)O1)N1CCc2ccccc2C1
-3	8.6	i	-0.3	-3	OC[C@@H]1CN(Cc2ccc(-c3ccccc3)cc2)C[C@H](n2cnc3c(NC4CC4)ncnc32)O1
29	-0.5	i	5.7	25	COc1cc(N=Nc2ccc(Br)cc2)cc(C=O)c1O
-2	1.8	i	3.5	-11	C[C@H]1CN([C@@H](C)CO)C(=O)c2cc(NC(=O)Nc3ccccc3)ccc2O[C@H]1CN(C)Cc1ccc(C(F)(F)F)cc1
-5&-9	-8.8&0.7	i	4.3&6.1	-12&-24	COc1ccccc1-c1cn(CC[C@H]2CC[C@@H](NS(=O)(=O)c3ccccc3C)[C@@H](CO)O2)nn1
5	-2.1	i	-1.8	13	C[C@H](CO)N1C[C@H](C)[C@H](CN(C)Cc2ccncc2)Oc2ncc(C#CC3(O)CCCC3)cc2C1=O
6	3.5	i	-0.1	3	Cc1noc(C)c1S(=O)(=O)Nc1ccc2c(c1)C(=O)N([C@@H](C)CO)C[C@@H](C)[C@@H](CN(C)S(=O)(=O)c1cn(C)cn1)O2

Of the compounds above, these contain two or more sulfur atoms.
rRNA inh HTS	AF4-AF9 inh	FGF22 binding	rRNA inh HTS RFP	rRNA inh HTS OD600	SMILES
1	-4.2	i	-1.1	-3	CNC[C@H]1Oc2ccc(NS(=O)(=O)c3cccs3)cc2C(=O)N([C@@H](C)CO)C[C@H]1C
6	3.5	i	-0.1	3	Cc1noc(C)c1S(=O)(=O)Nc1ccc2c(c1)C(=O)N([C@@H](C)CO)C[C@@H](C)[C@@H](CN(C)S(=O)(=O)c1cn(C)cn1)O2

(list continues)
rRNA inh HTS	AF4-AF9 inh	FGF22 binding	rRNA inh HTS RFP	rRNA inh HTS OD600	SMILES
1	2.6	i	1.1	-5	O=C(C[C@@H]1C[C@H]2c3cc(NC(=O)c4cccnc4)ccc3O[C@H]2[C@@H](CO)O1)NCc1cc(F)ccc1F
-41	11	i	5.2	-69	Cc1ccccc1NC(=O)Nc1nc(C(N)Cc2ccccc2)cs1 (stereo not given)
-5	0.9	i	-4.7	-13	CCCCN1C(=O)C(=O)N(CC(=O)Nc2cc(Cl)ccc2OC)C1=O
1	-12	i	0.7	-4	CC(C)NC(=O)Nc1ccc2c(c1)C(=O)N([C@@H](C)CO)C[C@H](C)[C@@H](CN(C)C(=O)c1ccccc1)OCCCC[C@H](C)O2
-9	9.7	i	12	-11	CN(C)c1ccc(Cl)c(NC(N)=S)c1
0	-4.5	i	-1.0	-2	C=CCOC(=O)N1CCC2CC1c1cc(-c3cccc(C)c3)ccc12 (stereo not given)
5	-0.6	i	-6.8	10	C[C@H]1CN([C@@H](C)CO)C(=O)c2cc(C#CC3(O)CCCC3)cnc2O[C@H]1CN(C)C(=O)C1CCC1
-1	-2.1	i	-0.9	3	CCCC#Cc1cnc2c(c1)C(=O)N([C@H](C)CO)C[C@H](C)[C@H](CN(C)C(=O)Nc1c(C)noc1C)O2
-8	1.8	i	0.8	-1	COC(=O)[C@@]1(C(C)C)N=C(c2cc(OC)c(OC)c(OC)c2)[C@]2(O1)C(=O)Nc1ccccc12
15	-3.8	i	3.8	7	Cc1ccc(C(=O)OCC(=O)Nc2c(C)nn(-c3ccccc3)c2C)c(O)c1
1	-4.0	i	-2.5	-1	CC(C)NC(=O)N(C)C[C@@H]1Oc2c(NC(=O)C3CC3)cccc2C(=O)N([C@@H](C)CO)C[C@@H]1C
i	1.0	i	x	x	Cc1ccccc1S(=O)(=O)N1C[C@H](O)COC[C@@H]2O[C@H](CC(=O)N3CCCCC3)CC[C@H]21
7	1.1	i	-0.5	11	COc1ccc(CN(C)C[C@@H]2Oc3ccc(NC(=O)Cn4cnnn4)cc3C(=O)N([C@@H](C)CO)C[C@@H]2C)cc1
-53	1.3	i	-19	-80	COc1cccc(Cn2cnc(-c3ccccc3OC)c2-c2cccs2)c1
-3	-1.5	i	-3.8	-1	C[C@@H]1CN([C@@H](C)CO)C(=O)c2cc(NC(=O)CCCCCC(=O)Nc3ccccc3N)ccc2O[C@@H]1CN(C)S(=O)(=O)c1ccccc1

The final 3 records of the part above are carried over, then new ones follow:
rRNA inh HTS	AF4-AF9 inh	FGF22 binding	rRNA inh HTS RFP	rRNA inh HTS OD600	SMILES
7	1.1	i	-0.5	11	COc1ccc(CN(C)C[C@@H]2Oc3ccc(NC(=O)Cn4cnnn4)cc3C(=O)N([C@@H](C)CO)C[C@@H]2C)cc1
-53	1.3	i	-19	-80	COc1cccc(Cn2cnc(-c3ccccc3OC)c2-c2cccs2)c1
-3	-1.5	i	-3.8	-1	C[C@@H]1CN([C@@H](C)CO)C(=O)c2cc(NC(=O)CCCCCC(=O)Nc3ccccc3N)ccc2O[C@@H]1CN(C)S(=O)(=O)c1ccccc1
-2	0.1	i	2.6	-4	O=C(C[C@H]1C[C@H]2c3cc(NC(=O)Nc4ccccc4)ccc3O[C@H]2[C@@H](CO)O1)NCc1ccccc1
-1	-12	i	-0.8	4	C[C@@H]1CCCCO[C@@H](CN(C)S(=O)(=O)c2ccc(Cl)cc2)[C@@H](C)CN([C@H](C)CO)C(=O)c2cc(NS(=O)(=O)c3ccccc3)ccc2O1
6	-0.9	i	0.6	9	CC1(C(=O)Nc2ccc3c(c2)OCCO3)CN(S(C)(=O)=O)CC(=O)N1CC(F)(F)F (stereo not given)
-3	-1.6	i	2.3	-1	Cc1ccc(S(=O)(=O)Nc2ccc3c(c2)C(=O)N([C@H](C)CO)C[C@@H](C)[C@H](CN(C)S(=O)(=O)c2ccc(F)cc2)O3)cc1
0	-2.3	i	-1.6	-6	C[C@@H]1CN([C@H](C)CO)C(=O)c2cc(-c3ccc(F)cc3)cnc2O[C@@H]1CN(C)C(=O)c1ccc(F)cc1
-1	-0.6	i	-1.3	4	CCCN1[C@@H]2c3ccc(-c4ccccc4)c(=O)n3C[C@@H]2[C@@H](CO)[C@@H]1C(=O)NCC(F)(F)F
2	-0.7	i	1.4	6	C[C@@H]1CCCCO[C@@H](CN(C)S(C)(=O)=O)[C@H](C)CN([C@H](C)CO)C(=O)c2cc(NS(=O)(=O)c3ccccc3)ccc2O1
-2	6.0	i	13	-12	CC(=O)NC(c1ccc(Cl)cc1)c1ccc2cccnc2c1O (stereo not given)
0	9.6	i	-1.0	14	CCCCC(=O)NC(c1cccc([N+](=O)[O-])c1)c1ccc2cccnc2c1O (stereo not given)
3	-1.7	i	10.0	10	COc1ccc(CCNC(=O)CSc2nnc(Cn3c(=O)sc4ccccc43)n2C)cc1OC
-2	3.4	i	-1.7	-8	COc1ccc(NC(=O)Nc2ccc3c(c2)C(=O)N([C@@H](C)CO)C[C@@H](C)[C@H](CN(C)C(=O)c2ccccc2)OCCCC[C@H](C)O3)cc1
3	-0.6	i	0.4	2	Cc1noc(C)c1NC(=O)Nc1ccc2c(c1)C(=O)N([C@H](C)CO)C[C@@H](C)[C@H](CN(C)S(=O)(=O)c1ccc(Cl)cc1)O2
-1	0.8	i	1.7	-5	C[C@H]1CCCCO[C@H](CN(C)C(=O)Nc2ccc(F)cc2)[C@@H](C)CN([C@@H](C)CO)C(=O)c2cc(NC(=O)C3CCCCC3)ccc2O1
-34	-3.2	i	-13	-55	Cc1ccc(Cl)cc1NS(=O)(=O)c1ccccc1
-5	3.2	i	2.3	-7	CO[C@H]1CN(C)C(=O)c2cc(NS(=O)(=O)c3cn(C)cn3)ccc2OC[C@@H](C)N(Cc2cccc(F)c2)C[C@@H]1C
19	-0.5	i	1.9	6	CCCN(C)C1CN(Cc2cn(Cc3cc(C)cc(C)c3)nn2)S(=O)(=O)C1 (stereo not given)
-5	-1.1	i	1.8	4	C[C@@H]1CN([C@H](C)CO)C(=O)c2cc(-c3cccc(C(=O)N(C)C)c3)cnc2O[C@H]1CN(C)S(=O)(=O)c1ccc(F)cc1
-6	0.6	i	0.5	-9	CO[C@@H]1CN(C)C(=O)c2cc(NS(=O)(=O)c3cn(C)cn3)ccc2OC[C@H](C)N(Cc2cccc(F)c2)C[C@H]1C
7	-6.3	i	12	0	Cc1ccc(S(=O)(=O)N2[C@H](CC(=O)c3ccc(Cl)c(Cl)c3)OC[C@@H]2C(C)C)cc1
2	0.9	i	1.0	-7	COc1ccc(S(=O)(=O)Nc2ccc3c(c2)C(=O)N([C@@H](C)CO)C[C@@H](C)[C@H](CN(C)Cc2ccc4c(c2)OCO4)O3)cc1
-4	1.2	i	0.7	-3	Cc1ccc(S(=O)(=O)N(C)C[C@H]2Oc3c(NC(=O)Nc4ccccc4)cccc3C(=O)N([C@@H](C)CO)C[C@H]2C)cc1
2	0.4	i	-0.2	2	COc1ccc(CN(C)C[C@@H]2Oc3ccc(NC(=O)C4CCCCC4)cc3C(=O)N([C@H](C)CO)C[C@H]2C)cc1
-33	3.7	i	-23	-78	CCCc1c(-c2ccccc2)ncn1Cc1ccccc1OC
-1	1.3	i	20	-14	CCCN(C)C[C@H]1Oc2cc(C#Cc3ccc(OC)cc3)ccc2S(=O)(=O)N([C@H](C)CO)C[C@H]1C
5	-0.2	i	-2.5	5	O=C(NCCN1CCOCC1)C(=O)NCC1OCCN1S(=O)(=O)c1ccc(Cl)cc1 (stereo not given)
4	-1.6	i	0.3	-2	C[C@H]1CN([C@@H](C)CO)C(=O)Cc2cc(NC(=O)C3CC3)ccc2O[C@H]1CN(C)S(=O)(=O)c1ccccc1
0	-16	i	-3.3	0	COCC(=O)N1C[C@H]2[C@@H](c3ccccc31)[C@H](CO)N2Cc1ccccc1Cl
-3	-1.2	i	1.0	-9	C[C@H](CO)N1C[C@H](C)[C@H](CN(C)S(C)(=O)=O)OCCCC[C@H](C)Oc2ccc(NS(=O)(=O)c3ccc(Cl)cc3)cc2C1=O
-2	-0.3	i	2.4	-26	COc1ccccc1C#Cc1ccc2c(c1)O[C@@H](CN(C)C(C)=O)[C@H](C)CN([C@H](C)CO)S2(=O)=O
14	-2.4	i	7.1	14	CC(C)(C)[S@@](=O)N1Cc2cc(C(=O)NCCc3ccncc3)nc(-c3cccc(-c4ccc(C#N)cc4)c3)c2[C@H]1CCO

2 compounds from above with just FGF22 binding, rRNA inh HTS and rRNA inh HTS OD600.
| smiles | FGF22 binding | rRNA inh HTS | rRNA inh HTS OD600 |
| --- | --- | --- | --- |
| CO[C@H]1CC[C@H]2CCN(C)C(=O)C[C@@H](c3ccccc3)CN(C)C(=O)c3cccc(C#N)c3OC[C@H]1O2 | i | 0 | 1 |
| COc1ccc(NC(=O)N(C)C[C@H]2Oc3c(NC(=O)C4CCCCC4)cccc3C(=O)N([C@@H](C)CO)C[C@@H]2C)cc1 | i | 1 | 1 |

The listing continues.
rRNA inh HTS	AF4-AF9 inh	FGF22 binding	rRNA inh HTS RFP	rRNA inh HTS OD600	SMILES
-4	4.1	i	3.1	-1	CO[C@H]1CN(C)C(=O)c2ccc(NS(=O)(=O)c3ccccc3)cc2OC[C@H](C)N(Cc2cccnc2)C[C@H]1C
-12	0.4	i	2.6	-38	Cc1ccc(C(=O)N2CCC(Cc3ccccc3)CC2)cc1S(=O)(=O)N1CCOCC1
-1	-1.6	i	-0.4	0	CO[C@H]1CN(C)C(=O)c2ccc(NC(=O)C3CC3)cc2OC[C@@H](C)N(C(=O)C2CCOCC2)C[C@H]1C
0	-3.9	i	-4.3	-1	COc1ccc2c3c([nH]c2c1)[C@H](CO)N(Cc1ccc(F)cc1)CC31CN(C(C)=O)C1
0	13	i	3.1	-2	COc1ccc(S(=O)(=O)Nc2cccc3c2O[C@@H](CN(C)C(=O)NC2CCCCC2)[C@H](C)CN([C@H](C)CO)C3=O)cc1
17	0.3	i	2.7	12	O=C(NCCS(=O)(=O)N1CCN(C(=O)c2ccco2)CC1)c1ccccc1
0	-2.6	i	2.4	16	CC(C)(C)OC(=O)N1CCC[C@H]1C(=O)N1CCC[C@H]1C(=O)NCc1ccc(F)cc1F
